Source: PubChem (several laboratories)
Sa ugtP lethal = growth inhibition of ugtP-null S. aureus, primary screen, RN4220 ugtP deletion, OD600; 16 h; some inactives read as strong as hits; growth inhibition, % (test concentration not listed); hit rate 0.54% among 330,000; AID 1259309, 2017;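 active = z-score under -3 and OD600 up to 0.15 on both plates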;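 also: plate controls were untreated wells for no effect and antibiotic for full effect; wells of about 80 µL received 100 nL stock; the first replicate is given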
PrP 5UTR inh = inhibition of PrP 5' UTR reporter expression. cell-based PrP 5' UTR mRNA reporter, plate reader. inhibition, % (concentration not given with the values). hit rate 0.35% among 340,000;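 active = every replicate at 50% or more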;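 also: 0 = median of the neutral control wells; tested in H4 reporter cells; numbers are from one replicate; inactives centre near -14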
BJeLR lethal = MLPCN primary cell-based screen for lethality selective to Ras in HRASV12 cells; BJeLR (HRASV12) viability, CellTiter-Glo ATP luminescence, 48 h; reference of the scale not given here; hit rate 0.17% among 300,000; inhibition, % (no concentration beside the values);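 active = replicate mean above 50%; inconclusive = above 50% but judged a plate artefact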;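 also: 50 nL library stock added to about 25 µL; numbers are from one replicate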
Sa RN4220 lethal = growth inhibition of S. aureus RN4220, primary screen, OD600; 16 h; inhibition, % (test concentration not listed); hit rate 0.33% among 330,000; AID 1259311, 2017;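 active = z-score of -3 or lower and OD600 up to 0.18 on both plates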;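 also: plate controls were untreated cells for no effect and reference antibiotic for full effect; stock transfer was 100 nL into about 80 µL; one replicate is shown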
Mtb hypoxia rep = PubChem AID 1159583 | M. tuberculosis hypoxia-regulated fluorescent reporter, fluorescence | hit rate 0.1% among 300,000 | fluorescence inhibition, % (concentration not given with the values);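 active = 35 to 45% if threefold the growth effect, above 45% if 1.5-fold the growth effect; inactive = the rest, general growth blockers included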;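 also: wells of about 50 µL received 100 nL stock; 0% = vehicle wells and 100% = reference inhibitor wells; whole bacteria with a GFP reporter of the hypoxia response; strong numbers were not always called active; many hits fall short of the cut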
Bead autofluor = flagged as autofluorescent in microsphere protease counterscreen. fluorescence intensity (no concentration beside the values). hit rate 3.1% among 360,000. AID 624483. compound autofluorescence counterscreen, microsphere flow cytometry; hits give high values;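 active = at least 3 SD above the mean of all compounds, about 16000 in these data; inconclusive = too few beads counted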;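 also: 100 nL of 1 mM stock went into each well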
Mtb hypoxia rep growth = recorded beside Mtb hypoxia rep, whose call it bears; growth inhibition, %; measured here: M. tuberculosis growth (absorbance);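 0% = vehicle and 100% = reference antibiotic; read after six days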
* marks the source's active call; other numbers are inactive results; ? = inconclusive; · = not tested or not shown; & = joins results of further samples.

SMILES	Sa ugtP lethal	PrP 5UTR inh	BJeLR lethal	Sa RN4220 lethal	Mtb hypoxia rep	Mtb hypoxia rep growth	Bead autofluor
O=C(O)C1Nc2c(Cl)cc(Cl)c(Cl)c2C2C=CCC12 (stereo not given)	2	-11	-12	8.2	8	4	4146
COc1ccccc1N1CCN(CC(=O)Nc2nccs2)CC1	14	-22	-6	1.3	12	8	3484
COc1ccc(S(=O)(=O)Nc2c(O)c3ccccc3oc2=O)cc1	2	-7	-4	7.8	0	-1	4526
O=C(O)c1ccc2c(c1)C(=O)N(c1ccc(C(=O)OCC(=O)c3ccccc3)cc1)C2=O	4	-18	-1	1.4	7	-4	3641
COc1ccc2c(c1)SCCC2=O	-5	-91	0	-11	24	-16	3275
Cc1cccc(OCC(=O)O/N=C(\N)Cc2ccc([N+](=O)[O-])cc2)c1	-7	-20	0	-1.9	-4	-8	5507
CC(C=NNC(=O)COc1ccccc1C)=NNC(=O)COc1ccccc1C	-4	·	·	0.0	-2	-9	·
CCC(C)(NC(=O)CNC(C)=O)C(=O)NC1CCCCC1 (stereo not given)	9	-20	4	6.3	15	10	2341
CCC(C)(C)NC(=O)c1ccc2c(c1)S(=O)(=O)c1ccccc1C2=O	4	-7	2	2.9	14	11	?
Cc1ccc(C)c(NC(=O)CCNS(=O)(=O)c2ccc3[nH]c(=O)oc3c2)c1	-8	-6	2	-4.9	-11	-4	4459
O=C(NOC(=O)c1c(F)cccc1Cl)c1ccc(Cl)c(Cl)c1	-6	-32	7	7.2	18	8	3892
O=C(O)c1cc(Cl)c(Cl)cc1C(=O)NCc1ccco1	-2	-6	8	2.4	-4	4	3642
CC(C)OCCCNC(=O)c1c(N)n(/N=C/c2ccccn2)c2nc3ccccc3nc12	·	-61	7	·	·	·	3480
NC(=O)c1cc(-c2cccnc2)nc2ccc(Br)cc12	2	-21	-7	0.2	2	-1	5036
CCCCCn1c(CNC(=O)c2cccs2)nc2ccccc21	-6	-17	3	0.3	-1	-8	6818
CC(C)Cn1c(=O)c(-[n+]2ccccc2)c([O-])c2ccccc21	7	-13	-3	6.4	1	8	2002
COc1ccc(/C=N/NC(=O)CN2CCCC2)cc1	·	-11	5	·	·	·	3619
O=C(COc1ccc2ccc(=O)oc2c1)Nc1nccs1	3	-79	-6	4.7	-1	-2	5305
CCOC(=O)c1ccc(N/C=C/C(=O)c2ccc(OC)cc2)cc1	6	-58	16	4.7	-1	8	10325
CCCCC(=O)N/N=C/c1sccc1C	·	-3	3	·	·	·	2768

A different layout for some results above:
Every second line gives: Sa ugtP lethal	PrP 5UTR inh	BJeLR lethal	Sa RN4220 lethal	Mtb hypoxia rep	Mtb hypoxia rep growth	Bead autofluor
- O=C(O)c1cc(Cl)c(Cl)cc1C(=O)NCc1ccco1
 : -2	-6	8	2.4	-4	4	3642
- O=C(NOC(=O)c1c(F)cccc1Cl)c1ccc(Cl)c(Cl)c1
 : -6	-32	7	7.2	18	8	3892
- NC(=O)c1cc(-c2cccnc2)nc2ccc(Br)cc12
 : 2	-21	-7	0.2	2	-1	5036
- CC(C)Cn1c(=O)c(-[n+]2ccccc2)c([O-])c2ccccc21
 : 7	-13	-3	6.4	1	8	2002
- COc1ccc(/C=N/NC(=O)CN2CCCC2)cc1
 : ·	-11	5	·	·	·	3619
- O=C(COc1ccc2ccc(=O)oc2c1)Nc1nccs1
 : 3	-79	-6	4.7	-1	-2	5305

(next part)
SMILES	Sa ugtP lethal	PrP 5UTR inh	BJeLR lethal	Sa RN4220 lethal	Mtb hypoxia rep	Mtb hypoxia rep growth	Bead autofluor
COc1ccccc1N1CCN(CC(=O)c2ccc(F)cc2)CC1	4	-20	-7	4.7	10	2	4062
CN1CCc2c(c3c(n2C)CCN(C)[C@@H]3c2cccnc2)[C@H]1c1cccnc1	14	-15	5&-6	4.2	10	7	2365
NC1=NC(=O)/C(=C\c2cccs2)S1	8	-4	-11	5.5	·	·	3348
O=C(CSc1ncc(C(F)(F)F)cc1Cl)N1CCNC1=O	0	-16	·	3.8	8	15	6593
O=C1CSC(=S)N1N=C/C=C/c1ccccc1	-1	·	·	7.9	6	5	·
Clc1cc(Br)ccc1OCCOCCN1CCOCC1	·	-9	-10	·	·	·	3408
Cc1cccc(C)c1NC(=O)c1cccc(N2C(=O)C3CCC(C)CC3C2=O)c1 (stereo not given)	2	-15	2	-2.2	4	0	5950
CC(=O)Nc1cccc(C(=O)Nc2ccc(S(=O)(=O)N3CCCCC3)cc2)c1	6	3	9	3.6	11	1	5543
C[C@H]1CN=C(N(C)C)N1CC1CCCCC1	-4	-12	·	-9.4	8	14	4158
COc1ccccc1N1CCN(C(=O)c2cc3sccc3n2C)CC1	-9	-10	2	-1.4	·	·	4925
CCOc1ccc(NC(=O)NCCCN2CCCC2)cc1	3	-19	-4	5.1	·	·	4707
CCc1ccc(N(C(=O)CNC(=O)c2ccco2)C(C(=O)NC2CCCC2)c2cccnc2)cc1 (stereo not given)	8	-17	-2	3.8	3	6	3978
O=C(NC1CC1)C1=C[C@@H](c2ccc(Br)cc2)C[C@@H](OCCCCO)O1	-4	-10	-6	-8.5	1	-2	4114
CN(N=Cc1cccnc1)c1cnc2ccccc2n1	10	·	·	33	5	0	·
COc1ccc(-c2nnc(NC(=O)Cc3ccccc3)s2)c(OC)c1	7	-5	5	3.0	0	6	4630
COc1cc(/C=C/C(=O)N2CCN(c3ccccn3)CC2)cc(OC)c1OC	-1	-3	-5	0.2	15	6	6169
O=C(NCc1ccco1)c1cccc(NC(=O)c2ccccc2)c1	3	-23	-3	1.7	-1	-5	8761
CC(C)c1ccc(NC(=O)NCc2ccc3c(c2)OCO3)cc1	10	-8	10	0.4	7	-7	?
Cc1ccc(CC(=O)O/N=C(\N)Cc2ccc([N+](=O)[O-])cc2)cc1	-4	-20	-3	-3.8	10	-3	2365
O=c1cc(O)n(-c2ccc(Cl)cc2)c(=S)[nH]1	12	-6	5	0.5	·	·	2762
CC(=O)Nc1c(C(=O)c2ccccc2)oc2ccccc12	-5	-8	-1	6.9	16	9	9481
CCOc1ccc(-c2nonc2NC(=O)c2ccco2)cc1OCC	11	-17	-4	3.1	4	1	6109
CSCc1c(C(=O)Nc2ccccc2N2CCOCC2)oc2ccccc12	34	-8	·	1.5	3	0	6476
CC(=O)N1CCN(C(=O)c2ccc3c(c2)OCO3)CC1	0	0	·	3.9	-24	14	3676
COC(=O)c1ccc(NC(=O)c2cn(-c3ccccc3)nc2-c2ccncc2)cc1	-18	1	-12	-11	19	7	2861
Cc1ccc(-c2nc(N)nc(N)n2)c(C)c1	-10	-4	·	-2.1	-2	-7	3665
COc1ccccc1OCCOCCOc1c(C)cc(C)cc1Br	29	-2	-2	4.4	11	1	2323
Cc1ccccc1CN1C(CC2CCCCC2)COCCS1(=O)=O (stereo not given)	26	·	·	16	2	7	·
CC(C)OC(=S)NC(=NS(=O)(=O)c1ccccc1)c1ccccc1	9	·	·	5.4	12	3	·
COc1ccccc1CCC(=O)OCC(=O)NCc1ccc(OC)c(OC)c1	8	-6	·	2.3	-7	2	?
CC(C)CCN(C(=O)c1cn2ccccc2n1)c1c(N)n(Cc2ccccc2)c(=O)[nH]c1=O	4	-8	·	1.6	-3	-8	4801
COc1cccc(C(c2nnnn2Cc2ccco2)N2CCN(Cc3ccccc3)CC2)c1OC (stereo not given)	-3	-5	3	4.0	1	0	4281
CC(C)Oc1ccc(NC(=O)CCC(=O)O)cc1	7	-14	-7	3.7	-2	-7	16641*
CCCN1CCN(C(=O)Cn2ncc3c([nH]c4ccc(C)cc43)c2=O)CC1	1	-14	-1	0.3	7	5	4402
NC(=O)NC(=O)COC(=O)c1ccccc1Oc1ccccc1	43	4	-2	1.9	·	·	2550
CCn1c(CNC(=O)C2CCCCC2)cc2cc(C)ccc21	-1	-36	-1	1.4	-1	2	3013
O=C(Nc1ccccc1C(=O)NN=Cc1ccncc1)c1ccccc1	12	·	·	1.4	-5	-3	·
O=C(CCC(=O)c1ccc(F)cc1)NCc1ccccc1C(F)(F)F	4	-13	9	3.4	16	6	6418
COc1ccc(OCC#CCN2CCCCCC2)cc1	14	-22	1	0.6	3	7	2735
CNC(=O)C(=O)NCCN1CCN(S(=O)(=O)c2ccc3ccccc3c2)CC1	5	-22	2	2.4	0	-3	3931
Cc1cc(NS(=O)(=O)c2ccc(Nc3nc(-c4ccc(C)c(C)c4)cs3)cc2)no1	1	-17	-1	-2.2	3	-5	9917
Cc1cccc(Nc2nc(-c3c(C)nc4ccccn34)cs2)c1	45	-35	15	-0.3	21	10	10666
COc1cc(C(=O)N2CCN(C(=O)c3cccc4ccccc34)CC2)cc(OC)c1OC	3	-10	7	4.4	-12	-2	6236
CCC1=NN2C(=N)/C(=C\c3cccn3-c3ccc(C)c(C)c3)C(=O)N=C2S1	5	-18	-3	-2.2	-9	-14	2542
COc1ccc(Cl)cc1C(=O)NCC(c1ccco1)N1CCCC1 (stereo not given)	-2	-20	1	6.2	-1	6	6988
C=CCn1cc(C(=O)NCCCOC)c(=O)c2cc(S(=O)(=O)N(CC)CC)ccc21	-2	-24	7	1.9	1	13	5375
Cc1ccc(Cl)c(OCC(=O)NC2CCN(Cc3ccccc3)CC2)c1	-2	-11	2	-0.7	-3	11	?
C=CCn1c(=S)[nH]c2ccc(Br)cc2c1=O	-10	-3	3	-1.0	·	·	2969
N#Cc1ccc(OCC(=O)OCC(=O)NCCC2=CCCCC2)cc1	0	-13	-5	-1.2	0	-7	2125
CC1(c2ccc([N+](=O)[O-])cc2)NC(=O)NC1=O (stereo not given)	5	8	-3	5.4	0	6	3129

Other compounds
SMILES	Sa ugtP lethal	PrP 5UTR inh	BJeLR lethal	Sa RN4220 lethal	Mtb hypoxia rep	Mtb hypoxia rep growth	Bead autofluor
CCc1cc(C(Cc2ccccn2)=NO)c(O)cc1O	-6	·	·	2.8	6	3	·
O=C(Cc1cccc2ccccc12)NN=Cc1ccc(F)cc1	-16	·	·	-0.3	2	7	·
COc1ccc(N(CC(=O)N2CCc3ccccc3C2)S(C)(=O)=O)cc1OC	3	-8	-1	2.1	1	-3	16881*
CC1(C)Cc2c(sc(NC(=O)COc3cccc4ccccc34)c2C#N)C(C)(C)N1	-3	-32	-5	2.1	15	4	3882
O=C(N/N=C\c1cccc(Cl)c1)c1n[nH]c2c1CCCC2	·	-125	16	·	·	·	1989
O=C(C=Cc1cccs1)c1cccs1	-1	-45	·	4.0	18	30	3245
Cn1c(=O)c2c(nc(N3CCc4ccccc4C3)n2C)n(C)c1=O	10	-6	4	7.2	-1	2	4753
O=C(OCCCN1C(=O)c2ccccc2C1=O)c1ccco1	-6	-21	2	-2.3	·	·	2987
Cc1cccc(C(C)C)c1NC(=O)C1CN(S(=O)(=O)c2ccccc2)CCN1S(=O)(=O)c1ccccc1 (stereo not given)	-5	-7	9	-3.4	7	5	6056
O=c1[nH]c(C2CCN(S(=O)(=O)c3ccccc3)CC2)nc2c1nnn2Cc1cccc(Cl)c1	-3	2	10	2.5	7	-4	4288
COc1ccc(NC(=S)N2CCN(Cc3ccco3)CC2)c(OC)c1	4	-2	-9	2.6	8	2	9458
CC=C(C)C(=O)Nc1cccc(C2=NOC3(C2)CC(C(N)=O)N(C(=O)c2ccccc2)C3)c1 (stereo not given)	0	·	·	4.2	21	8	·
COc1cccc(N2CCN(c3nc(C)c(C)c(=O)[nH]3)CC2)c1	9	-40	-1	0.5	5	6	3224
CC(C(=O)O)N1C(=O)/C(=C/c2cccn2C)SC1=S (stereo not given)	5	-24	·	7.7	19	3	2568
COc1cc(N=C2C(=O)N3CCCc4cccc2c43)cc(OC)c1	2	-9	-4	1.8	4	8	1857
CN1CCN(Cc2nc3c([nH]2)c(=O)[nH]c(=O)n3C)CC1	-3	-18	3	-0.7	4	-7	4085
O=C(O)CC1S/C(=N\N=C/c2ccccc2O)N(c2ccc(O)cc2)C1=O (stereo not given)	·	-10	-2	·	·	·	2026
CC(=O)c1c(C)[nH]c(C(=O)CSc2nnc(-c3ccco3)n2Cc2ccccc2)c1C	4	-1	0	1.9	-10	-10	16352*
COC(=O)C(C#N)c1nc2ccccc2nc1N1CCCC1 (stereo not given)	-7	-5	0	7.5	·	·	2266
O=C(Nc1nnc(Cc2ccccc2)s1)C1CCN(C(=O)c2ccco2)CC1	-3	-12	3	1.4	16	0	3764
CCOC(=O)C1(CC2CCCCO2)CCN(Cc2ccccc2-c2ccco2)CC1 (stereo not given)	11	-37	-1	2.7	3	-13	6076

Random draw from the library; overall some 3.9% were active at least once.
